NPYLR7 ag: agonists of mosquito NPYLR7 receptor, primary screen, cell-based, Aedes aegypti, calcium fluorescence, mosquito biting behavior | HEK293T NPYLR7/Galpha15, GCaMP6s calcium fluorescence | Aedes aegypti neuropeptide Y-like receptor 7 (NPYLR7) | 270,000 tested, 0.15% active | AID 1259423, 2018 | activation, % at 10 µM; in the data active = activation above about 40%;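 note: 0% = vehicle and 100% = reference agonist at the receptor; some compounds past the cut are filed as inactive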
NPYLR7 ag max-min: recorded beside NPYLR7 ag, whose call it bears; activation, %; measured here: Max-Min RFU normalised activation; some inactives read as strong as hits;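 span of the calcium signal over five minutes; 0% = vehicle and 100% = native peptide agonist; compound fluorescence can raise it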
* hit, by the source's call; & = joins results of further samples.

Start of the listing, in advance (15 entries):
SMILES	NPYLR7 ag	NPYLR7 ag max-min
CCOC(=O)c1cc(-c2ccc(N3CCN(C(=O)c4cc(C)oc4C(F)(F)F)CC3)cc2)n(-c2ccccc2Cl)n1	4	0
CCOCCOCc1cccc(CNc2nccc(C)n2)c1	2	-12
Cc1ccc(NC(=O)CCc2ccc(S(=O)(=O)N3CCCCCC3)cc2)c(O)c1	-3	-2
O=c1c2cc3c(cc2nc2sc(Nc4ccccc4)nn12)OCO3	3	0
C=CCNC(=O)C(NC(=O)c1ccc2c(c1)OCO2)C1CCN(C(=O)c2cccs2)CC1 (stereo unspecified)	10	15
O=C(Nc1cccc2ccc(-n3cccc3)nc12)c1ccc(F)c(F)c1	1	-2
Cc1cc2oc(C(=O)Nc3ccccc3[N+](=O)[O-])c(C)c2cc1C	7	7
CCOC(=O)c1[nH]ncc1CN1CCCn2cncc2C1	10	-1
CCCCn1c(N)c(N(Cc2ccco2)C(=O)CN2CSCC2=O)c(=O)[nH]c1=O	0	2
CCOC(=NCCN1CCCC1)NC(=O)c1ccc2c(c1)OCO2	-9	-1
Cc1ccc(NC(=O)CSc2ncc(S(=O)(=O)c3ccc(C)cc3C)c(=O)[nH]2)cc1	-1	-7
CCCOc1ccc(-c2ccc(-c3noc(C4CCCCC4)n3)cc2)cc1	4	7
CC(C)(C)NCc1cc2ccccc2nc1Cl	-3	-2
C=CCCC(O)CN(CC=C)CC(=O)N1CCc2sccc2C1COc1ccccc1OC (stereo unspecified)	4	4
CCOC(=O)C1(C/C=C/c2ccccc2)CCCN(C(=O)c2n[nH]c(=O)c3ccccc23)C1 (stereo unspecified)	20	8

All compounds of this part, from the start:
SMILES	NPYLR7 ag	NPYLR7 ag max-min
CCOC(=O)c1cc(-c2ccc(N3CCN(C(=O)c4cc(C)oc4C(F)(F)F)CC3)cc2)n(-c2ccccc2Cl)n1	4	0
CCOCCOCc1cccc(CNc2nccc(C)n2)c1	2	-12
Cc1ccc(NC(=O)CCc2ccc(S(=O)(=O)N3CCCCCC3)cc2)c(O)c1	-3	-2
O=c1c2cc3c(cc2nc2sc(Nc4ccccc4)nn12)OCO3	3	0
C=CCNC(=O)C(NC(=O)c1ccc2c(c1)OCO2)C1CCN(C(=O)c2cccs2)CC1 (stereo unspecified)	10	15
O=C(Nc1cccc2ccc(-n3cccc3)nc12)c1ccc(F)c(F)c1	1	-2
Cc1cc2oc(C(=O)Nc3ccccc3[N+](=O)[O-])c(C)c2cc1C	7	7
CCOC(=O)c1[nH]ncc1CN1CCCn2cncc2C1	10	-1
CCCCn1c(N)c(N(Cc2ccco2)C(=O)CN2CSCC2=O)c(=O)[nH]c1=O	0	2
CCOC(=NCCN1CCCC1)NC(=O)c1ccc2c(c1)OCO2	-9	-1
Cc1ccc(NC(=O)CSc2ncc(S(=O)(=O)c3ccc(C)cc3C)c(=O)[nH]2)cc1	-1	-7
CCCOc1ccc(-c2ccc(-c3noc(C4CCCCC4)n3)cc2)cc1	4	7
CC(C)(C)NCc1cc2ccccc2nc1Cl	-3	-2
C=CCCC(O)CN(CC=C)CC(=O)N1CCc2sccc2C1COc1ccccc1OC (stereo unspecified)	4	4
CCOC(=O)C1(C/C=C/c2ccccc2)CCCN(C(=O)c2n[nH]c(=O)c3ccccc23)C1 (stereo unspecified)	20	8
Cc1nc2scc(C)n2c(=O)c1NC(=O)c1c(F)cccc1Cl	12	2
CCOC(=O)N1CCC(NC2CC(=O)N(CCCc3ccccc3)C2)CC1 (stereo unspecified)	3	2
CCCc1ccc(OCC(=O)NNC(=O)CCOc2ccccc2)cc1	-4	-11
C=C(C)[C@@H]1CC[C@]2(C(=O)O)CC[C@]3(C)[C@H](CC[C@@H]4[C@@]5(C)CC[C@H](O)C(C)(C)[C@@H]5CC[C@]43C)[C@@H]12	-4	-7
Cc1cccn2c(CC(=O)NCCS(=O)(=O)N3CCCC3)cnc12	1	0
CCN(CC)CCn1c2c(c(SCC(=O)NCc3ccccc3)nc1=O)CCC2	2	1
CCOC(=O)[C@@H]1CCCC[C@@H]1NC(=O)c1ccc(-n2nc(-c3cccc(Cl)c3)cc2N)cc1	0	-4
CCC(C)n1c(-c2ccccc2)nc(=S)c2c1CCCC2 (stereo unspecified)	6	1
CCc1ncc2c(n1)CN(C(=O)c1[nH]cnc1-c1ccccc1)C2	-1	-4
O=S(=O)(NC(C1CC1)C1CC1)c1ccc(Cl)cc1	1	1
Cc1ccc(C)c(CSc2nccn(-c3ccc4c(c3)OCCO4)c2=O)c1	-2	-1
COc1ccc(C(=O)NCCCNC(=O)[C@H]2CCCN2C(=O)c2ccc(Cl)c(Cl)c2)cc1	0	5
C=CCn1c(SCc2c(F)cccc2Cl)nnc1-c1ccccc1OC	18	14
Cc1nn(C)c(C)c1NS(=O)(=O)c1ccc2c(c1)OCCO2	0&3	-2&11
CCOC(=O)N1CCN(C(=O)CSc2nc3c(c(=O)n2-c2ccccc2)SCC3)CC1	-4	-6
Cc1ccc(-c2cc(C(=O)N3CCCC4(CC3)CN(C)C(=O)O4)n[nH]2)o1 (stereo unspecified)	11	1
CC(C(=O)NC(c1ccc(S(C)(=O)=O)cc1)c1cccc(N(C)C)c1)c1cccc(C(=O)c2ccccc2)c1 (stereo unspecified)	-7	-14
Cc1ccc2c(c1)C1(SCCN1C(=O)C(C)C)C(=O)N2Cc1cccc(F)c1 (stereo unspecified)	15	17
O=C(c1ccco1)N(Cc1ccc(F)cc1F)CC1CC(c2ccccc2Cl)=NO1 (stereo unspecified)	-3	1
COc1ccc(C(NC(=O)CN2CCS(=O)(=O)CC2)C(F)(F)F)cc1OC (stereo unspecified)	0	-3
COc1ccc(Cl)cc1NC(=O)Nc1ccc(Nc2cc(OC(C)C)nc(C)n2)cc1	24	17

Single entries from the results shown:
COc1ccc(Cl)cc1NC(=O)Nc1ccc(Nc2cc(OC(C)C)nc(C)n2)cc1 – NPYLR7 ag = 24
C=CCn1c(SCc2c(F)cccc2Cl)nnc1-c1ccccc1OC – NPYLR7 ag = 18

Remaining list, next part
SMILES	NPYLR7 ag	NPYLR7 ag max-min
O=c1c(-c2ccc(F)cc2)[n+]([O-])c2ccccc2n1OCc1ccccn1	4	1
Fc1ccc(Cc2noc(-c3ccc(NC4CCSC4)nc3)n2)cc1 (stereo unspecified)	5	2
O=C(CCc1cc(=O)[nH]o1)NC1CC(=O)N(CCc2ccc(F)cc2)C1 (stereo unspecified)	10	4
CC1Oc2ccccc2N(CCC(=O)Nc2nc(-c3cc(F)ccc3F)cs2)C1=O (stereo unspecified)	7	8
O=C(NCc1ccc(F)cc1)c1cc2n(n1)CCN(Cc1ccc(Cl)c(Cl)c1)C2=O	0	11
Cc1cc(=O)n2nc(N3CCCC(C(=O)NC4CCCC(C)C4C)C3)sc2n1 (stereo unspecified)	4	2
O=C(CN1CCCC1c1ccccc1)c1c[nH]c(C(=O)N2CCCC2)c1 (stereo unspecified)	1	-5
Cc1ccc(C2=NC(=CN(C)C)C(=O)O2)cc1	1	1
COc1ccc(-c2cccc(-c3cccc(NC(=O)C(C)(C)OC(C)=O)c3)n2)cc1	-7	-11
COc1cccc(-c2cc(C(=O)NCc3ccc(F)cc3)c3ccccc3n2)c1	0	-9
CCCCN=c1scc(C)n1N=Cc1ccc(O)c(O)c1O	3	3
Cc1ccc2c(C)c(C(=O)NCCc3cnn(-c4ccccc4)c3)oc2c1C	14	1
OC12CCCCC1C(c1ccc(Cl)cc1Cl)NCC2 (stereo unspecified)	3	1
CCCCNC(=O)c1ccc2nc(CC)c(N(C)CCC(C)C)n2c1	-5	-8
CCN(Cc1cc(Br)ccc1O)C(=O)c1cncn1-c1ccccc1	0	0
CCOC(=O)c1ccc2c(c1)nc(SCc1ccc(OC)c(F)c1)n2Cc1ccccn1	2	-5
C=CCSc1nnc2c(n1)OC(c1ccccn1)Nc1ccccc1-2 (stereo unspecified)	2	-2
CCCc1[nH]n(-c2ccccc2)c(=O)c1C1=C(N2CCOCC2)C(=O)N(c2cc(C)ccc2OC)C1=O	1	-9
CCN(CC(=O)NC(C)C)C(=O)c1sccc1C1CC1	6	3
O=S(=O)(c1cc(Cl)ccc1Cl)N1CCC2(CCCO2)CC1	9	8
O=C1C(NS(=O)(=O)c2cccs2)CCN1c1ccccc1F (stereo unspecified)	-17	-17
Cc1cccc(CN2CCN(C(=O)CN(C)CC(=O)Nc3cc(F)ccc3C)CC2)c1	-3	-6
CCOC(=O)N1CCC(NCc2nncn2C2CCCCC2)CC1	32	18
CN(C)C(=O)c1c(NC(=O)c2cccs2)sc2c1CCC2	-9	-10
COc1ccc(C2CC(c3ccccc3)=NN2c2nc(-c3ccccc3)c3cc(Cl)ccc3n2)cc1 (stereo unspecified)	-8	-11
CCCn1c(C(=O)Nc2ccccc2F)cc2c(=O)n(C)c(=O)n(C)c21	-5	-6
COc1ccccc1N1CCN(Cn2ncn(-c3cccc(Cl)c3)c2=S)CC1	3	6
CC(C)NC(=O)N(Cc1ccco1)Cc1c(-c2ccccc2)noc1N(C)C(C)C	5	16
CS(=O)(=O)c1ccc(CN2CC[C@H](c3nc4ncccc4[nH]3)C2)cc1	-7	-15
CCNC(=O)NCc1ccc(OCCOc2ccccc2)nc1	0	-2
CN1C[C@@H](O)[C@]2(CCN(C(=O)N3CCOCC3)C2)S1(=O)=O	2	2
Cc1ccc(C2=NC(=Cc3cc(C#N)n(C)c3C)C(=O)O2)s1	-1	1
Cc1ccc(CSc2nc3c([nH]c4ccccc43)c(=O)n2C)cc1	0	12
Fc1cccc2sc(Nc3nnc(-c4cccs4)o3)nc12	-3	-6
CCc1c(C)nn(CC(=O)N2CCn3cccc3C2C)c1C (stereo unspecified)	4	3
CC(C)(C)c1cc2nc(-c3ccccc3Cl)cc(C(=O)N3CCN(c4ccccc4Cl)CC3)n2n1	11	18
Cc1ccc(N2CCN(C(=O)c3ccco3)C(C)C2=O)c(C)c1 (stereo unspecified)	-4	1
CCOC(=O)Cn1c(CN2CCOCC2)nc2c1c(=O)n(C)c(=O)n2C	10	30
O=C(CN1CCCC1)c1ccc(Cl)s1	-4	-9
Cc1ccc(-c2csc3ncn(CC(O)COc4ccc(F)cc4)c(=O)c23)cc1C (stereo unspecified)	-1	-2
CC1=NN(C(=S)Nc2ccccc2)C(C)(C)C1	-3	-7
Cc1cccc(S(=O)(=O)NCC(c2cccn2C)N2CCc3ccccc3C2)c1 (stereo unspecified)	6	5
COc1cccc(C(=O)N2CCN(Cc3ccc(NC(C)=O)cc3)CC2)c1	8	5
COc1cc2c(cc1OC)CN(C1CCCN(C3Cc4ccccc4C3)C1)CC2 (stereo unspecified)	2	-1
CC(=O)OCc1cnn(Cc2ccc(Br)cc2)c1	3	1
Cc1cc(C2CCC2)nc(N2CCC3(CC2)CNC(=O)O3)n1	2	-2
O=c1c2cnc3nc4ccccc4n3c2ccn1-c1ccc(F)c(F)c1	-1	-2
CCn1ccnc1CNC(=O)c1ccc2oc(CCCc3ccccc3)nc2c1	2	-1
CCOCC(=O)Nc1c(C)nc2sccn2c1=O	7	-3
Cc1noc(NS(=O)(=O)c2ccc(NC(=O)c3ccc(Br)cc3)cc2)c1C	-7	-12
O=C(c1ccccc1)c1ccc2c(c1)N=C1CCCC(=O)C1C(c1cccs1)N2 (stereo unspecified)	-10	-9
CN(C)c1ccc(CNC(=O)COC(=O)c2cc(Br)c[nH]2)cc1	-3	-4
Cc1ccc(Cc2nsc(N(CCC(=O)NCCCN3CCOCC3)CC(C)C)n2)cc1	18	16
Cc1ccc(CN(C)CN2C(=O)NC3(CCCCC3C)C2=O)cc1 (stereo unspecified)	7	7
C/C=C/C(=O)Nc1sc(-c2ccccc2)cc1C(=O)OCC	-3	-2
Cc1ncc(CN2CCC(CNS(=O)(=O)C3CC3)C2)cn1 (stereo unspecified)	3	2
COc1ccc(NC(=O)CSc2ncc(S(=O)(=O)c3ccc(C)cc3)c(=O)[nH]2)c(OC)c1	-16	-19
O=C(C1CCC1)N(Cc1ccccc1Cl)CC1CC(c2ccc3c(c2)OCO3)=NO1 (stereo unspecified)	13	20
Cc1cccc(NC(=O)N2CCSC23C(=O)N(Cc2ccccc2Cl)c2ccc(C)cc23)c1 (stereo unspecified)	12	11
CC1CN(C(=O)Nc2ccccc2C(F)(F)F)c2cccnc2N1 (stereo unspecified)	-5	-8
(listing goes on)
SMILES	NPYLR7 ag	NPYLR7 ag max-min
CC1=C(C(=O)N2CCOCC2)C(c2ccc(N(C)C)cc2)N(C)C(=S)N1C (stereo unspecified)	-4	-6
O=S1(=O)CCN(c2cccc(NS(=O)(=O)c3cccc(F)c3F)c2)CC1	9	7
COc1cccc(CN(C)C(=O)c2sc(=O)n(CCc3ccccc3)c2C)c1	8	4
O=C(Nc1ncccc1O)c1ccccc1Br	18	12
CC(C(N)=O)N1CCCN(S(=O)(=O)c2ccc(F)cc2)CC1 (stereo unspecified)	-10	-11
COc1cccc(-c2n[nH]c3ccnc(-c4cccc(O)c4)c23)c1	2	2
CN(C)c1cccc(C(NC(=O)c2cc(F)ccc2C(F)(F)F)c2ccc(S(C)(=O)=O)cc2)c1 (stereo unspecified)	-15	-18
Cc1nn(-c2ccccc2)c(N)c1N=Nc1cccnc1	2	9
Clc1ccc(Nc2nc(NCCN3CCOCC3)nc3nccnc23)cc1	-3	6
CC(=O)Nc1ccc(CN2CCN(Cc3ccc(C)o3)C(CCO)C2)cc1 (stereo unspecified)	5&-2	4&-4
COc1ccc(CCN2CC3=C(C2=O)C(c2ccc(OC)c(OC)c2)NC(=O)N3)cc1 (stereo unspecified)	0	16
O=C(C1CCCN1S(=O)(=O)c1cccs1)N1CCN(c2nc3ccc(F)cc3s2)CC1 (stereo unspecified)	0	-1
O=C(c1cccc(Cn2cccn2)c1)N1CC[C@@H](c2ccc(F)cc2)[C@H](O)C1	-3	-3
Cc1cccc(CC(=O)NCCc2cc3ccc(C)cc3[nH]c2=O)c1	23	31
COc1ccc(CCCNC(=O)c2ccc(N3CCCC(O)C3)nc2)cc1 (stereo unspecified)	21	7
O=[N+]([O-])c1ccc(Nc2ccccc2O)c([N+](=O)[O-])c1	7	11
COCCCNC(=O)c1cc2n(n1)CCN(Cc1ccc(OC)cc1)C2=O	17	11
O=S(=O)(c1cc2c(cc1Br)OCCO2)N1CCc2sccc2C1	1	-3

Screening data from PubChem BioAssay.

A portion of the library. The share of hits here may be higher or lower than overall.
